Ba CapD inh: blocks the Bacillus anthracis CapD enzyme. purified CapD enzyme, fluorescence intensity read-out; active compounds read low; some hits fall short of the stated cut. AID 492967. z-score (concentration not given with the values). actives 0.23% (n = 140,000);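 active = z-score under -4 in either of two replicates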;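 note: stock transfer was 100 nL into about 40 µL; score is relative to mean and spread of the plate; one replicate is shown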
AID504770: E. coli YBA685 growth inhibition, screen for V. cholerae RctB inhibitors. actives 0.27% (n = 130,000). z-score (no concentration beside the values). E. coli YBA685 rctB-dependent plasmid, OD600 growth, 3 h; active compounds read low;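 active = z-score under -2 on both plates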;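 note: wells of about 30 µL received 100 nL stock; score is relative to mean and SD of the test wells; the first replicate is given; strong numbers were not always called active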
* marks the source's active call; other numbers are inactive results; x = no result given; & = joins results of further samples. This is a subset; rates above refer to the full screens.

nr	Molecule	Ba CapD inh	AID504770
1	CCC(=O)/C=C\c1nnc2cc3c(cc2c1-c1ccc(CC)o1)OCCO3	-0.415	0.15
2	Cc1ccc(S(=O)(=O)N2CCN(S(C)(=O)=O)C2c2ccccc2)cc1 (centres undefined)	-0.375	x
3	COc1cc(C(=O)NN2C(=O)CSC2=S)cc(OC)c1OC	x	-0.6
4	CCn1nc(CC(=O)c2ccc(Br)cc2)c(=O)n2c3ccccc3nc12	0.125	x
5	Cn1nnc2cc(C(=O)NCc3ccco3)ccc21	x	-1.1
6	CN1CCc2c(sc(NC(=O)c3ccco3)c2C(N)=O)C1	2.78	-0.3
7	Cc1ccc(-n2ncc(N(C)n3cccc3)c(Cl)c2=O)cc1	-0.97	-0.25
8	O=C(N=Nc1c(O)[nH]c2ccc(Br)cc12)N=Nc1c(O)[nH]c2ccc(Br)cc12	-0.22	x
9	COC(=O)c1c(CSc2nnc(-c3cc(OC)c(OC)c(OC)c3)o2)nc2ccccc2c1C	x	-0.15
10	Cc1ccc(C)c(N=C2SCCCN2C(=O)c2ccc(C#N)cc2)c1	x	-0.4
11	Cn1c(=O)n(C)c2cc(S(=O)(=O)NC3CCCCC3)ccc21	-0.53	-0.35
12	COc1ccc(-c2ncc3ccccn23)cc1	17	-0.15
13	CCOC(=O)c1c(C)n(C(C)C)c2ccc(OC(=O)c3ccco3)cc12	-0.005	-0.85
14	COc1ccc(C2C(C(=O)c3ccccc3)C(=O)CC(C)(O)C2C(=O)c2ccccc2)cc1 (centres undefined)	0	-0.7
15	NNC(=O)Cn1ccc(C(F)(F)F)n1	x	1.2
16	COc1ccc(-c2nc(C#N)c(N3CCC(C(N)=O)CC3)o2)cc1	x	-0.9
17	CCc1ccc(N=Cc2c(O)n(-c3ccccc3)c(=O)c3ccccc23)cc1	-1.4	0.05
18	CCN(C(=O)CSc1nnc(Cn2nnc3ccccc32)o1)c1nc(-c2ccccc2)cs1	x	1.3
19	O=S(=O)(c1ccc(NCC2CCCO2)nc1)N1CCC(Cc2ccccc2)CC1 (centres undefined)	x	-0.65
20	CC(CC(=O)Oc1ccc(C#N)cc1)S(=O)(=O)c1ccc(Cl)cc1 (centres undefined)	-0.565	2.4
21	CCOCCOC(=O)C1=C(C)NC2=C(C(=O)CC(c3ccccc3)C2)C1c1ccc(Br)cc1 (centres undefined)	3.71	x
22	COc1cccc(C(=O)N2CCC(C(=O)N3CCOCC3)CC2)c1	0.55	0.45
23	CCOc1ccc(C(=O)NC2CC2)cc1	-0.77	-1.1
24	COC(=O)c1c(COC(=O)c2ccc(NC(=O)c3ccco3)cc2)nc2ccccc2c1C	x	-0.2
25	C=C1c2ccccc2C(=O)N1c1ccc(C(F)(F)F)cc1	-0.3	-0.15
26	COc1cccc(Oc2coc3cc(OC(=O)N(C)C)ccc3c2=O)c1	-0.38	-1.05
27	Cc1ccc(OCCn2c(NC(=O)c3ccc(Cl)cc3)nc3ccccc32)cc1	0.165	x
28	CC(C)(C)NC(=O)NC(=O)c1c(F)cccc1Cl	0.185	x
29	O=C(O)CN1C(=O)CC(Cc2ccccc2)C1=O (centres undefined)	x	-0.1
30	O=C(Cc1cccs1)Nc1nnc(Cc2ccccc2)s1	-0.08	0.85
31	CCC(c1ccc(O)cc1)C(CC)c1ccc(O)cc1 (centres undefined)	0.225&-0.55	0.2
32	COc1ccc(S(=O)(=O)Nc2ccccc2C(=O)NCc2ccco2)cc1OC	x	0
33	O=C(N/N=C/c1cc2c3c(c1O)CCCN3CCC2)c1ccncc1	-1.92	-1.2
34	CCS(=O)(=O)Nc1ccccc1-c1ccccc1	0.6	-0.8
35	CCCn1cnc2ccccc21	-0.97	0.65
36	COc1ccc(NC(=O)/C(C#N)=C/c2ccc3c(c2)n(C)c(=O)n3C)cc1	x	-1.15
37	Cc1ccc2c(c1)c(=O)c(C(=O)O)cn2C	-0.42	0
38	O=C(NCCSC1=NCCN1)c1cccnc1Oc1ccccc1	-0.385	-0.35
39	CN(C)C(CNC(=O)c1ccc(S(=O)(=O)N2CCCc3ccccc32)cc1)c1ccco1 (centres undefined)	x	1.2
40	O=C(c1cc2ccccc2oc1=O)N1CCSC1c1cccc(Cl)c1 (centres undefined)	0.31	0.65
41	NC(=O)CSc1nc(-c2ccccc2)cs1	x	-0.85
42	CCC(C)C(NC(N)=O)C(=O)Nc1cccc(Cl)c1 (centres undefined)	x	-0.4
43	COc1ccc2nc3sc(C(=O)O)cc3cc2c1	0.755	x
44	COc1ccc(N2CCN(C(=O)Cc3nc(-c4ccccc4)sc3C)CC2)c(OC)c1	0.86	x
45	O=C(NCc1ccccc1)c1ccc(CSCc2cccc(Cl)c2)o1	0.855	2
46	CC1=C(C(=O)OC(C)(C)C)C(c2cccc(Cl)c2)NC(=O)N1 (centres undefined)	-0.1	-0.1
47	CCOC(=O)C1=CN(Cc2ccc(Cl)cc2)C=C(C(=O)OCC)C1c1ccc(OC)cc1OC	23	x
48	CN(CC1COc2ccccc2O1)C(=O)c1cc(=O)[nH]c2ccccc12 (centres undefined)	x	1.75
49	CCC(=Nc1ccccc1N)c1c(O)[nH]c(=O)[nH]c1=O	0.285	-0.1
50	COc1ccc(N2C(N)=C(C#N)C(c3cc(Br)cs3)C3=C2CC(C)(C)CC3=O)cc1 (centres undefined)	-0.24	x

Seven of these compounds, reformatted.
27	Cc1ccc(OCCn2c(NC(=O)c3ccc(Cl)cc3)nc3ccccc32)cc1
28	CC(C)(C)NC(=O)NC(=O)c1c(F)cccc1Cl
29	O=C(O)CN1C(=O)CC(Cc2ccccc2)C1=O (centres undefined)
30	O=C(Cc1cccs1)Nc1nnc(Cc2ccccc2)s1
31	CCC(c1ccc(O)cc1)C(CC)c1ccc(O)cc1 (centres undefined)
32	COc1ccc(S(=O)(=O)Nc2ccccc2C(=O)NCc2ccco2)cc1OC
33	O=C(N/N=C/c1cc2c3c(c1O)CCCN3CCC2)c1ccncc1

assay / entry | 27 | 28 | 29 | 30 | 31 | 32 | 33
Ba CapD inh | 0.165 | 0.185 | x | -0.08 | 0.225&-0.55 | x | -1.92
AID504770 | x | x | -0.1 | 0.85 | 0.2 | 0 | -1.2

Next section
nr	Molecule	Ba CapD inh	AID504770
51	CCOC(CN(c1ccc(F)cc1)S(=O)(=O)c1cc(Cl)cc(Cl)c1)OCC	0.47	x
52	Cc1ccc(C(=O)Nc2ccc(-c3noc(-c4ccccc4F)n3)cc2)cc1[N+](=O)[O-]	-0.2	x
53	CC(O)c1nc2ccccc2n1CC(=O)N(c1ccccc1)C(C)C (centres undefined)	1.15	-0.65
54	O=C(NC(=O)c1c(F)cccc1Cl)Nc1ccccc1Oc1ccc(Cl)cc1Cl	0.27	x
55	CCn1ncc(Cl)c1C(=O)NCc1ccco1	0.5	0.05
56	COc1ccc2c(CNCC(C)c3ccccc3)c(C(=O)O)n(Cc3ccc(F)cc3)c2c1 (centres undefined)	-0.3	1.3
57	Nc1nc2cc(Cl)ccc2n1CCCO	0.14	-0.1
58	O=C1NCCCCC1NCC(O)c1ccccc1 (centres undefined)	4.81	0.25
59	O=C(Nc1cccc(N2CCCC2)c1)C(F)(F)C(F)F	-0.035	-0.15
60	CC1CN(Cc2nc(N3CC(C)OC(C)C3)c3c4c(sc3n2)CCCC4)CC(C)O1 (centres undefined)	x	0.05
61	Cc1sc2c(c1C)CSC(C(=O)NCCc1ccccc1)=C2	-0.82	0.55
62	O=c1oc2c(-c3cccc(Cl)c3)cc(O)cc2s1	0.735	0.4
63	COc1ccc(Cc2nc(C(=O)NCc3ccccc3OC)cs2)cc1	-0.56	x
64	CS(=O)(=O)N1N=C(c2ccccc2)CC1c1ccccc1 (centres undefined)	0.05	-0.55
65	O=C(OC1COC(c2ccc(Br)cc2)OC1)c1ccc(Br)cc1 (centres undefined)	-0.37	0.05
66	CC(C)OC(=O)c1ccc2c3c(onc13)-c1ccccc1C2=O	-0.35	x
67	Cn1nccc1NC=C(C#N)C#N	-2.42	0.3
68	CCC(C(=O)Nc1ccc2c(c1)OCO2)n1nc(-c2ccc(C)cc2)c2c(c1=O)CCCC2 (centres undefined)	-0.375	-0.85
69	COc1ccccc1CNC(=O)c1cc2cnccc2nc1C(F)(F)F	-0.245	x
70	COCCNC(=O)Cn1cc(/C=C(\C#N)C(N)=O)c2ccccc21	x	-0.55
71	C=CCNC(=O)c1ccc(OCC=C)cc1	0.92	1.15
72	CC(=O)N1CCN(S(=O)(=O)c2cccc(C(=O)OCc3cc(Cl)cc4c3OCOC4)c2)CC1	x	2.05
73	CCOC(=O)c1c(-c2ccccc2)csc1NC(=O)c1cc2ccccc2oc1=O	-0.155	x
74	O=C1c2ccccc2C(O)(Cc2ccccc2)N1c1ccc2c(c1)OCO2 (centres undefined)	-0.115	2.3
75	COc1ccc(-c2nc(SCC(=O)C(C#N)c3nc(C)cs3)n[nH]2)cc1 (centres undefined)	x	-0.05
76	O=C(NCCc1ccccc1)C1CCC(=O)N1C1CCCCC1 (centres undefined)	-0.11	0.95
77	Cc1cc(Cl)ccc1N1C(=O)C(N2C(=O)c3ccc([N+](=O)[O-])cc3C2=O)C1c1cccs1 (centres undefined)	-0.175	x
78	O=C(Nc1cccc(Cl)c1)Nc1ccc2c(c1)oc1ccccc12	-0.37	-0.3
79	COc1cc(OC)cc(C(=O)N2CCC(C(=O)NCCc3ccccc3)CC2)c1	x	2
80	c1ccc2c(c1)OCC(CSc1nnc3ccccn13)O2 (centres undefined)	x	0.15
81	Cc1c(Cl)cnc(NC(=O)COC(=O)/C=C/c2cccn2C)c1Cl	x	1.65
82	CCC1C(=O)N=C(SCC(=O)Nc2ccccc2C#N)NC1=O (centres undefined)	0.015	x
83	CCC(NC(=O)Nc1cc(C)ccc1OC)c1c(-n2cccc2)sc2c1CCN(CC)C2 (centres undefined)	0.16	-0.15
84	CC(=O)N=C(C)CC1(OC(C)=O)C(=O)N(C)c2ccccc21 (centres undefined)	x	0.3
85	O=C(CSc1nc2ccccc2n1CCc1ccccc1)NC1CC1	0.045	-0.25
86	CC(C)(C)c1cc2nc(C(F)(F)F)cc(N3CCN(c4ccc(C(F)(F)F)cn4)CC3)n2n1	2.1	-0.2
87	COc1ccc(C(=O)c2ccc(OC)cc2OC)c(OC)c1	x	0.1
88	CCn1c(=O)/c(=C\c2ccc(N(C)C)cc2)s/c1=C(/C#N)C(=O)Nc1ccc(C)cc1	x	-0.25
89	Cc1ccc(Cn2c(=O)c3ccccc3n3nncc23)cc1	0.53	-0.8
90	COc1ccc(-c2nnn(Cc3nc(N)nc(N4CCCCC4)n3)n2)cc1	-0.785	x
91	O=S(=O)(c1ccccc1)N1CCCC1c1cccnc1 (centres undefined)	-0.47	-0.7
92	Cc1ccc2cc3c(N)c(-c4nnc(-c5ccccc5)o4)sc3nc2c1	x	0
93	O=C(CNC(=O)C1CCCCC1)OCc1cc(=O)n2cc(Br)ccc2n1	x	-0.45
94	Cc1cc(C)c2c(c1)NC(=O)C21NNc2ccccc2O1 (centres undefined)	x	-0.6
95	O=C(CSc1nc2ccccc2c(=O)n1CC1CCC(C(=O)NCC2CCCO2)CC1)Nc1ccccc1Cl (centres undefined)	-0.635	x
96	C/C(=N\NC(=O)CCn1c2c(c3ccccc31)CCCC2)c1ccc(Br)s1	1.21	0.65
97	O=C(N/N=C/c1cn(-c2ccccc2)nc1-c1ccccc1)c1cccc(Br)c1	0.475	x
98	CN1CCN(/N=C/c2ccc(OC(F)F)cc2OC(F)F)CC1	x	-0.2
99	Cc1cc(Br)cc(Br)c1OC(=O)c1ccco1	x	1.45
100	CCCCOc1ccc(C2Oc3ccc(Br)cc3C3CC(c4ccc(Cl)cc4)=NN32)cc1 (centres undefined)	0.185	x

Remaining list, next part.
nr	Molecule	Ba CapD inh	AID504770
101	CC(NC(=O)Cc1nn[nH]n1)c1ccccc1 (centres undefined)	-0.035	0.5
102	N#Cc1ccc(-c2cccc(C(F)(F)F)c2)n(Cc2cccc(Cl)c2)c1=O	0.39	x
103	O=C(Cc1ccccc1)Nc1nc2ccccc2s1	x	1.4
104	C=C(C)C(=O)N1C(=O)OCC1c1ccccc1 (centres undefined)	-1.83	0.25
105	C=CCOC(=O)COc1ccc2c3c(c(=O)oc2c1C)CCCC3	3.11	x
106	CCOC(=O)c1c(C)[nH]c(C)c1S(=O)(=O)NC1CCCCCCC1	0.91	0.5
107	CCOc1ccc(NC(=O)C2CC(=O)NC(=Nc3ccccc3)S2)cc1 (centres undefined)	x	0.8
108	S=C(/N=c1/sccn1Cc1ccccc1)NC1CC1	x	1.1
109	COc1ccccc1/C=C1\SC(=S)N(CCC(=O)Nc2ccc(S(N)(=O)=O)cc2)C1=O	-1.5	x
110	O=S1(=O)CCN2N=C(c3ccccc3)C(c3ccccc3)=NC2=N1	x	-0.6
111	O=C(NNC(=O)c1nccc2ccccc12)OCc1ccc2ccccc2c1	0.08	x
112	Cc1cc2c(c(=O)n1CCN(C)C)C(c1ccncc1)C(C#N)=C(N)O2 (centres undefined)	3.73	-0.8
113	CC(=O)Nc1nc2c(C)cccc2s1	x	-0.3
114	CCN1CCCC1CNC(=O)CS(=O)Cc1nc(-c2ccc(OC)c(OC)c2)oc1C (centres undefined)	1.17	0.35
115	Cc1ccccc1NC(=O)C(CC(C)C)N1C(=O)c2ccccc2C1=O (centres undefined)	0.1	-0.15
116	CC(=O)N1CCC2(CC1)OC(=O)C(C)=C2C(=O)N1CCOCC1	-1.23	0.35
117	CCn1c(-c2cccs2)nc2ccccc21	86.2	0.55

One compound at a time, from the list above:
COc1ccccc1/C=C1\SC(=S)N(CCC(=O)Nc2ccc(S(N)(=O)=O)cc2)C1=O as listed: Ba CapD inh = -1.5; AID504770 = x
O=C(NNC(=O)c1nccc2ccccc12)OCc1ccc2ccccc2c1 as listed: Ba CapD inh = 0.08; AID504770 = x

From PubChem BioAssay
